Ba CapD inh: Bacillus anthracis CapD inhibitors, primary screen, biochemical, fluorescence intensity | 0.23% of 140,000 active | CapD gamma-glutamyltranspeptidase (Bacillus anthracis Ames Ancestor) | z-score (concentration not given with the values) | purified CapD enzyme, fluorescence intensity read-out; active compounds read low; some hits fall short of the stated cut;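 active means z-score under -4 in either of two replicates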;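 further: stock transfer was 100 nL into about 40 µL; score is relative to mean and spread of the plate; one replicate is shown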
AID504770: growth inhibition of E. coli YBA685, primary screen, V. cholerae RctB inhibitors. E. coli YBA685 rctB-dependent plasmid, OD600 growth, 3 h; active compounds read low. z-score (test concentration not listed). 0.27% of 130,000 active. AID 504770, 2011;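 active means z-score under -2 on both plates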;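 further: wells of about 30 µL received 100 nL stock; score is relative to mean and SD of the test wells; the first replicate is given; strong numbers were not always called active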
The depositor's hits bear a star; x = no result given.

SMILES	Ba CapD inh	AID504770
O=C(NC1CCCCC1)C(c1ccc(F)cc1)N(Cc1ccco1)C(=O)c1ccccn1 (stereo not given)	x	-0.8
Nc1nc(Cn2c(=O)oc3ccccc32)nc(N2CCOCC2)n1	-0.315	x
CC12c3ccccc3C(C)(c3ccccc31)C1C(=O)N(Cc3ccccc3)C(=O)C12 (stereo not given)	1.25	x
CC(=O)Nc1cccc(Nc2ncnc3c2cnn3C)c1	-0.42	-0.8
O=C(CSc1nnc(-c2ccccc2)o1)c1ccc(-c2ccccc2)cc1	-0.705	x
O=C(CCCc1nnc2c(=O)n(-c3ccc(Cl)cc3)ccn12)N1CCc2ccccc2C1	-0.51	0.4
N=C1S/C(=C\c2ccc(-c3ccccc3C(=O)O)o2)C(=O)N1c1ccc2c(c1)OCO2	-1.94	x
COc1ccc(/C(C#N)=C/c2ccc3c(c2)OCO3)cc1OC	-0.375	-0.05
CC1CCC2C3(C)COC(C)(C)OC3CCC2(C)C12CCC(C)(CO)O2 (stereo not given)	-0.3	x
Cc1nc2ccccc2c2oc(C(=O)NCCCN3CCC(C)CC3)cc12	3.12	0.55
Cc1ccc(N/C=C/C(=O)C(C)Oc2ccc(-c3ccccc3)c(F)c2)cc1 (stereo not given)	0.42	x
Cc1ccc(Cl)cc1N1CCN(C(=O)/C=C/c2ccc(S(=O)(=O)NCc3ccco3)cc2)CC1	x	0.65
O=C(O)Cn1c(=O)oc2cc(S(=O)(=O)N3CCCCCC3)ccc21	x	1.6
CC1(C)CC(=O)C(Sc2ccccc2)=C(O)C1	-0.33	-1.75
CCn1cc(C(=O)NC2CCCC2)c(=O)c2cc(S(=O)(=O)N3CCCCC3)ccc21	16.6	-0.15
CC(=O)Nc1ccc(C(=O)OCC(=O)C(C)(C)C)cc1	0.425	-0.05
Cc1nc2c(=O)oc3ccccc3c2n1C(C)C	0.17	-0.6
N#Cc1c(/N=C/c2c(O)[nH]c(=O)[nH]c2=O)sc2c1CCC2	x	0.7
Cc1ccc(CN2C(=O)CCC2C(=O)NCCCN2CCCCC2)cc1 (stereo not given)	0.3	-1.3
CCCCN(CC)C(=O)c1cn(CC)c2nc(C)ccc2c1=O	13.6	0.05
COc1cc(/C=N/NC(=O)C(CCSC)NC(=O)c2ccc(C(F)(F)F)cc2)cc([N+](=O)[O-])c1O (stereo not given)	-0.21	x
COc1ccc(NC(=O)[C@@H](NC(=O)c2ccc(C)cc2)C(C)C)cc1OC	x	0.1
CCOc1cccc(C2CC(=O)Nc3c2ccc2ccccc32)c1 (stereo not given)	0.42	x
O/N=C1\CCCCc2c1[nH]c1ccc(C3CCCCC3)cc21	4.64	0.05
Cc1[nH]n(-c2ccccc2)c(=O)c1N=Nc1ccccc1C(=O)N1CCCCC1	0.09	-0.5
CC(=O)N1CCC(N(C(=O)CCC(=O)NCCN2CCOCC2)C2CC2)CC1	-0.07	x
O=C(O)c1cc(C(=O)O)cc(N2C(=O)C3C4c5ccccc5C(c5ccccc54)C3C2=O)c1 (stereo not given)	-0.155	x
O=C1NC(CCC2CCCCC2)Oc2ccccc21 (stereo not given)	0.31	0.95
O=C1C(=O)N(c2ccccn2)C(c2cccc([N+](=O)[O-])c2)/C1=C(\O)c1ccc(Br)cc1 (stereo not given)	-0.305	x
COc1ccccc1NC(=O)C1CCCN(S(=O)(=O)c2cnc[nH]2)C1 (stereo not given)	-0.135	0.2
O=S1(=O)c2ccccc2-c2ccccc21	2.79	x
COC(=O)CN1C(=S)N(C)C(=O)/C1=C/c1ccc(-c2ccc(Cl)cc2)o1	-0.005	-0.3
CN(C)CCCn1c(-c2ccccc2)cc(=S)c2c1CCCC2	x	-1.25
Oc1ccc(/C=N/n2cc(-c3ccccc3)[nH]c2=S)cc1	x	0.05
OCc1cn(-c2ccccc2)nn1	0.64	-0.05
COC(=O)c1c(NC(=O)CCS(=O)(=O)c2ccc(F)cc2)sc(C)c1C	x	-1.15
CCOC(=O)c1c(CBr)n(C)c2cc(Br)c(OC(C)=O)cc12	-0.005	x
CCOC(=O)c1ccc2nc(C)c(C)nc2c1	-1.33	-1.1
O=C(CSCCCc1ccccc1)NC1CCS(=O)(=O)C1 (stereo not given)	x	0.05
CCCCSC1=C(C#N)C(c2sccc2C)C(C(C)=O)=C(C)N1 (stereo not given)	0.97	x
CCC(CC)C(=O)Oc1coc(CSc2nc(C)cs2)cc1=O	x	-0.6
CCCCNc1c2c3c(cccc3[nH]c1=O)C(=O)c1ccccc1-2	x	1.25
O=C(CSc1ccc2c(c1)OCCO2)N1CCc2ccccc2C1	x	-0.1
CCc1ccc(-c2nc(CN3CCC(C(=O)NCc4cccs4)CC3)c(C)o2)cc1	-0.28	-1.05
CC(C)CS(=O)(=O)C1=NN2C(=N)/C(=C\c3ccco3)C(=O)N=C2S1	-4.13*	0.15
COC(=O)N(C)CC1Cc2ccccc2O1 (stereo not given)	-0.17	-0.45
CCN(c1ccccc1)c1nnc(NC(=O)Nc2cccc(OC)c2)s1	-0.705	0.5
CC(C)CC(C(=O)O)N1C(=O)C2C3c4ccccc4C(c4ccccc43)C2C1=O (stereo not given)	0.22	0
C1=C(c2ccccc2)Nc2ncnn2C1c1ccccc1 (stereo not given)	1.02	-0.75
CCCS(=O)(=O)c1c(S(=O)(=O)CCC)c2ccc(C(C)=O)cn2c1C(=O)c1ccc(C)cc1	0.21	x
COC(=O)c1sc(SC)c(-c2ccn[nH]2)c1C	1.96	-0.2
Cc1ccccc1S(=O)(=O)NC1=NCCCCC1	-0.19	-0.2
CCc1nnc(NC(=O)CSc2nnc(NC(=O)c3ccc(C(=O)c4ccccc4)cc3)s2)s1	-0.145	x
O=C(c1ccc(-c2ccccc2)cc1)c1cnc(Nc2ccccc2Cl)s1	3.92	x
Cn1c2c(c3ccccc31)CCc1nonc1-2	x	1
CCc1ccc2nc(N(CCN(C)C)C(=O)C3COc4ccccc4O3)sc2c1 (stereo not given)	0.005	0.55
Cc1cc(C(=O)CSc2ccc(S(=O)(=O)N3CCN(C)CC3)cn2)c(C)n1C1CC1	x	2.4
O=C(CN1C(=O)C2C3C=CC(C3)C2C1=O)NCC12CC3CC(CC(C3)C1)C2 (stereo not given)	x	0.3
CCOC(=O)c1nnc2c(Br)c(C)nn2c1C	-0.88	-0.6
O=C1C2C(c3ccccc3)C=CC(c3ccccc3)C2C(=O)N1Cc1ccccc1 (stereo not given)	0.2	0.25

Remaining list, next part
SMILES	Ba CapD inh	AID504770
Cc1ccc(C2C(C#N)=C(SCC(=O)Nc3ccc(C)c(C)c3)NC3=C2C(=O)CCC3)o1 (stereo not given)	0.94	x
O=C(c1cc2n(n1)C(C(F)(F)F)CC(c1ccc(Cl)cc1)N2)N1CCN(Cc2ccccc2)CC1 (stereo not given)	-0.15	x
Cc1ccc(CCNC(=O)C2CCN(c3nc4ccccc4o3)CC2)cc1	0.11	-0.2
COCC(C)NS(=O)(=O)c1ccc(NC(=O)C(Cc2ccccc2)NC(N)=O)cc1 (stereo not given)	x	0.15
O=C(Oc1ccc(F)cc1)c1c(Cl)cccc1Cl	-1.07	1.75
C/C(=N\NC(=O)c1cccc(S(=O)(=O)Nc2ccc(C)cc2C)c1)c1ccco1	x	-0.1
COc1ccc2c(c1)c(CC(=O)NC1CCCC1)c(C)n2C(=O)c1ccc(Cl)cc1	0.615	0.35
COc1ccc(CNC2CCCCC2C)cc1 (stereo not given)	0.17	-0.7
COC1C=CC23c4cc5c(cc4CN(C[C@H]2O)[C@@H]3C1)OCO5 (stereo not given in full)	x	0.1
COc1ccc(CCNC(=S)N(C)C)cc1OC	-0.145	-0.85
Cc1ccc(-c2n[nH]c3c2C(c2ccccc2F)N(c2ccccc2)C3=O)cc1 (stereo not given)	-0.55	x
Cn1nc(C(=O)N(CCCN2CCOCC2)Cc2ccco2)c2c1-c1ccccc1SC2	-0.375	-1.15

Laid out differently: 3 of the compounds above.
Cc1ccc(-c2n[nH]c3c2C(c2ccccc2F)N(c2ccccc2)C3=O)cc1 (stereo not given)
  Ba CapD inh: -0.55; AID504770: x
C/C(=N\NC(=O)c1cccc(S(=O)(=O)Nc2ccc(C)cc2C)c1)c1ccco1
  Ba CapD inh: x; AID504770: -0.1
Cc1ccc(C2C(C#N)=C(SCC(=O)Nc3ccc(C)c(C)c3)NC3=C2C(=O)CCC3)o1 (stereo not given)
  Ba CapD inh: 0.94; AID504770: x

Additional structures follow:
SMILES	Ba CapD inh	AID504770
O=C1C2CC=CCC2C(=O)N1c1ccccc1O (stereo not given)	-0.37	0.85
CCOc1ccc(-c2nnc3ccc(SCc4ccc(C(=O)OC)o4)nn23)cc1	-0.245	1.55
Cc1ccccc1-c1nc(C#N)c(NCCN2CCOCC2)o1	111	0.85
CCCCCC1CCN2c3c1cc(C(=O)O)cc3C1C=CCC1C2c1ccc(Br)cc1 (stereo not given)	1.01	x
CCC(=O)Nc1ccc(C(=O)NCC(=O)OC)cc1	-1.11	0.45
CC1(C)Cc2c(sc3nc(SCC(=O)O)n(-c4ccccc4)c(=O)c23)CO1	-0.24	x
CCc1cccc(C)c1N1C(=O)CC(C)C1=O (stereo not given)	-0.145	0
O=C(NCCCN1CCOCC1)c1cc(-c2ccc(F)cc2)on1	-0.6	-0.5
O=S(Cc1cc(Cl)nc(-c2ccccc2)n1)c1ccccc1 (stereo not given)	-0.795	1.4
O=C(O)c1cccc2ncccc12	1.59	-0.1
O=C(Cc1cccc(F)c1)N1CCN(S(=O)(=O)c2ccc3c(c2)OCCO3)CC1	x	-0.65
CCN(CC)CP(=O)(c1ccccc1)c1ccccc1	0.625	0.5
CC(C)(C)P(=NC(=O)COc1ccccc1)(N1CCCCC1)N1CCCCC1	x	-0.55
CC(=O)NNc1ccc2nc(C)sc2c1	0.465	-0.5
Cn1c(NC2CCN(Cc3ccccc3)CC2)cc(=O)n(C)c1=O	-0.405	x
O=C(Nc1ccc(OC(F)(F)F)cc1)c1ccccc1-n1cnnn1	x	1.1
Cc1cc2cc(CCNC(=O)c3c(-c4ccccc4Cl)noc3C)c(=O)[nH]c2cc1C	x	2.05
Cc1onc(-c2ccccc2)c1-c1nnc(-c2ccccc2C(F)(F)F)o1	0.51	-0.45
CC(C)(C)C(=O)Cn1nnc(-c2ccc(C(F)(F)F)cc2)n1	-0.55	-0.7
Nc1c(C(=O)c2ccc(Br)cc2)sc2nc(-c3ccccn3)ccc12	0.09	x
CC(=O)NC(C)C(=O)N1CCc2ccccc2C1 (stereo not given)	x	0.2
Cc1ccc2[nH]cc(NC(=O)NCCO)c(=O)c2c1	x	-0.1
NNC(=O)c1c(O)c2c([nH]c1=O)CCCC2	0.28	-1
Nc1cc(C(F)(F)F)c[nH]c1=O	x	0.05
O=C(CC1Sc2ccccc2NC1=O)N/N=C/c1ccoc1 (stereo not given)	-0.46	x
CCCN1CC=C2C(C#N)=C(N)C(C#N)(C#N)C(c3cccc(OC)c3)C2C1 (stereo not given)	x	-0.85
O=C(NCCNc1ccccc1)OCCc1ccccc1Cl	-1.34	x
O=c1c(N2CCOCC2)nsn1Cc1ccccc1	-0.02	0.7
Clc1ccc(-c2csc(-c3cccnc3)n2)s1	25.8	0
O=C(NCCCN1CCOCC1)C1CCC(=O)N1Cc1ccccc1Cl (stereo not given)	-0.285	-0.7
COc1ccc(C(=O)NCc2ccc3c(c2)OCO3)cc1	-0.625	0.25
CCNC(=O)N1c2cc(C)ccc2C(C)=CC1(C)C	3.4	1.15
CCN(CC)c1ncnc2sc(C(=O)Nc3cccc(OC)c3)c(C)c12	-0.365	x
O=C(O)c1cccc(Nc2nc(-c3cccs3)cs2)c1	-0.215	-0.65
NC(=S)NNc1ccc(Cl)c(Cl)c1	0.63	-0.85
COc1ccc(NC(=O)CNc2ccc(C#N)cc2)cc1	0.5	-1.1

Entries of single compounds, looked up by structure:
C/C(=N\NC(=O)c1cccc(S(=O)(=O)Nc2ccc(C)cc2C)c1)c1ccco1 reads Ba CapD inh: x; AID504770: -0.1
CCCCN(CC)C(=O)c1cn(CC)c2nc(C)ccc2c1=O reads Ba CapD inh: 13.6; AID504770: 0.05

Already shown: entries from further up.
SMILES	Ba CapD inh	AID504770
O=C(NC1CCCCC1)C(c1ccc(F)cc1)N(Cc1ccco1)C(=O)c1ccccn1 (stereo not given)	x	-0.8
Nc1nc(Cn2c(=O)oc3ccccc32)nc(N2CCOCC2)n1	-0.315	x
CC12c3ccccc3C(C)(c3ccccc31)C1C(=O)N(Cc3ccccc3)C(=O)C12 (stereo not given)	1.25	x

Continued.
SMILES	Ba CapD inh	AID504770
N#CCc1nc(-c2ccc(C(F)(F)F)cc2)n[nH]1	0.25	-0.8
COC(=O)c1c(NC(=O)CCN2C(=O)c3ccccc3C2=O)sc2c1CCC2	0.12	x
N#Cc1c(OCC(F)(F)F)ccc(S(=O)(=O)N2CCCC2)c1OCC(F)(F)F	0.03	-1.4
O=C(NNC(=O)c1cccs1)OCCc1ccc(Cl)cc1	-0.095	x
O=C(CC1CCCC1)N1CCCC(c2nc3c(nnn3Cc3ccccc3)c(=O)[nH]2)C1 (stereo not given)	0.49	1.15
CCCCNS(=O)(=O)c1cccs1	x	-0.9
O=C(Cn1cnc([N+](=O)[O-])n1)NCc1ccccc1	0.295	x
O=C(Nc1ccccc1)c1cc2n(n1)C(C(F)(F)F)CC(c1ccco1)N2 (stereo not given)	x	1.35
CC(C)(C)CC(=O)NC(=S)Nc1ccccc1	-0.185	-0.8

From PubChem
